Hsc70 ATP site = Hsc70 inhibitors, probe displacement, primary screen, biochemical, fluorescence polarization (AID 568) | 83,000 tested, under 10 active | displacement, % at 20 µM, or IC50 in µM where a hit was titrated | Hsc70 fluorescence polarization, probe displacement; higher % means a stronger effect; strong numbers were not always called active | Heat shock cognate 71 kDa protein (Homo sapiens);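 active means displacement above 50% without optical interference and an IC50 on retest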;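 further: ATPase domain with a fluorescein-tagged ATP probe; 0% = vehicle and 100% = excess ADP; read after one hour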
MT1-MMP reporter = inhibitors of MT1-MMP promoter transcription, cell-based, luciferase reporter, luminescence (AID 618); MT1-MMP promoter luciferase reporter cells, luminescence; calls from a first round at 10 µM; hits with a dose series show EC50 in µM; 87,000 tested, 0.62% active;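 active means over half of the reporter light lost at 10 µM or EC50 under 50 µM; inactive means the rest and hits that failed the dose series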;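 further: actives suppress MT1-MMP promoter-driven transcription so potencies describe inhibitors; HT1080 fibrosarcoma cells; overnight exposure; toxic or luciferase-blocking compounds were not removed from the actives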
WNV protease inh = inhibitors of WNV NS2B-NS3 protease, primary screen, biochemical, fluorogenic substrate; Genome polyprotein (West Nile virus), P06935; fluorogenic substrate Ex360/Em465; active compounds read low; z-score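 (tested at a level between 10 and 100 µM)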; 65,000 tested, 0.18% active; AID 577, 2007;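 active means z-score at -3 or under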;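 further: score is relative to mean and spread of the compound wells of a plate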
Target sequence (P06935 1371-1501 limits assumed): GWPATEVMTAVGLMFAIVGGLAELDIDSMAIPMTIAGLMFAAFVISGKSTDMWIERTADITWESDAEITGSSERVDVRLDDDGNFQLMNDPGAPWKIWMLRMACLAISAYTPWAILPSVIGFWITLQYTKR
Target sequence (P06935 1502-1679 limits assumed): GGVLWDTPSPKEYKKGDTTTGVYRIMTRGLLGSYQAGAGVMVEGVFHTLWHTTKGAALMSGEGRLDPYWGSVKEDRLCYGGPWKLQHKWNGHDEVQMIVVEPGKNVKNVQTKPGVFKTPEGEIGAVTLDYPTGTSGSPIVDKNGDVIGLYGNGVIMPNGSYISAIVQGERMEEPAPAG
* hit, by the source's call; i = inactive; x = not tested or not shown.

SMILES	Hsc70 ATP site	MT1-MMP reporter	WNV protease inh
COc1ccccc1N1CCN(C(=O)C(C)N(c2ccccc2)S(C)(=O)=O)CC1 (stereo unspecified)	-4.4%	i	x
Cc1ccc(C(=O)/C=C/c2cn(CN3CCN(C)CC3)c3ccccc23)cc1	-9.9%	i	x
c1ccc(-n2ncc3c(NC4CCCCCC4)ncnc32)cc1	1.6%	i	0.54
CCOC(=O)N1CCC(NC(=O)C2CCN(Cc3nc(-c4ccc(CC)cc4)oc3C)CC2)CC1	-5.6%	i	-0.12
COc1ccc(N(CN2C(=O)c3ccccc3C2=O)C(=O)C(C)C)cc1	-0.7%	i	-1.1
C#Cc1ccc(C(=O)Nc2cc(C(N)=O)ccc2N2CCOCC2)cc1	-3.9%	i	-0.23
CCN(CC)c1nc2ccccc2n2cnnc12	-6.2%	i	-0.92
Cc1ccc(Nc2nc(CSc3nnnn3-c3ccccc3)cc(=O)[nH]2)cc1	4.9%	i	0.18
Cc1nccn1-c1c2c(c(C#N)c3nc4ccccc4n13)CCC2	-2.9%	i	-1.1
Cc1cc(C)cc(OCc2ccc(C(=O)O)o2)c1	-5.4%	i	-0.66
Cc1cc(C)c(N2C(=NC(=O)CCCC(=O)O)SC3CS(=O)(=O)CC32)c(C)c1 (stereo unspecified)	-0.7%	i	-1.1
O=C(O)CSc1nc2c(c(=O)[nH]1)CCCC2	-5.4%	i	0.24
Cc1ccc(NC(=O)c2ccc3c(c2)OCCO3)cc1	-2.2%	1.7µM*	x
CC(=O)c1sc2nc(-c3cccs3)ccc2c1N	5.9%	i	x
COc1ccc(C2CC(c3ccccc3Cl)Nc3ncnn32)cc1OC (stereo unspecified)	0.3%	i	-0.21
O=S(NCc1ccccc1)C12CC3CC(CC(C3)C1)C2 (stereo unspecified)	4.9%	i	1.1
O=C(NC1CCCCCC1)c1cc2n(n1)C(C(F)(F)F)CC(c1ccco1)N2 (stereo unspecified)	-6.2%	i	0.01
COC(=O)C1=C(C)NC(=O)NC1c1cccc(OC)c1OCc1ccccc1 (stereo unspecified)	0.1%	i	x
Cc1cc(C)c(C)c(OCc2nc(-c3cccnc3)no2)c1	1.0%	i	-0.37
COC(=O)c1ccc(NC(=O)C(C)Oc2ccccc2)cc1 (stereo unspecified)	0.3%	i	x
Cc1ccccc1-c1nnc2s/c(=C\c3ccc(N(C)C)cc3)c(=O)n12	-21%	i	-0.08
CCOC(=O)c1c(-c2cccs2)csc1NC(=O)COC(=O)c1c(C)noc1C	-4.4%	i	0.13
CCCn1c(SCC(=O)Nc2cccc(C(=O)OC)c2)nnc1-c1cccnc1	0.7%	i	-0.15
O=C(Cc1ccc(-n2cccc2)cc1)N1CCN(c2ccccc2F)CC1	-2.8%	i	-1.1
CC1CCC2C(C1)c1sc(=O)[nH]c1SC2(C)C (stereo unspecified)	-4.0%	i	-0.08
Cc1cc(Nc2ccc(C(=O)O)cc2)n2nc(C)nc2n1	-3.2%	i	-0.19
COc1cc(Cl)c(S(=O)(=O)N2CC(C)OC(C)C2)cc1Cl (stereo unspecified)	5.9%	i	0.47
COc1ccc(-n2c(=O)cc(N3CCCCCC3)[nH]c2=O)cc1	2.2%	i	-0.48
COc1ccc(C(CC(=O)O)NC(=O)COc2ccccc2)cc1OC (stereo unspecified)	4.9%	i	0.89
CCCCC1(CC)C(=O)NC(=O)NC1=Nc1ccc(OC)cc1 (stereo unspecified)	4.6%	i	0.1
O=S(=O)(Nc1cccnc1)c1cc(Cl)ccc1Cl	1.4%	i	0.87
Cc1cc(C)cc(-n2nnc(C(=O)NCc3ccco3)c2N)c1	-7.9%	i	-1.1
CS(=O)(=O)N1CCC(C(=O)N2CCC(Cc3ccccc3)CC2)CC1	-1.0%	i	1.9
N#Cc1cc2c(=O)n3ccccc3nc2n(Cc2cccnc2)c1=O	1.8%	i	2.7
COc1ccccc1N1CCN(Cc2nc(N)nc(Nc3ccc(C)cc3)n2)CC1	-3.6%	i	1.2
COc1ccc(C(=O)O)cc1Nc1cc(C)nc2ncnn12	3.2%	i	-0.64

Single records (already shown).
`Cc1nccn1-c1c2c(c(C#N)c3nc4ccccc4n13)CCC2` is listed as Hsc70 ATP site = -2.9%; MT1-MMP reporter = i; WNV protease inh = -1.1
`CCCCC1(CC)C(=O)NC(=O)NC1=Nc1ccc(OC)cc1` (stereo unspecified) is listed as Hsc70 ATP site = 4.6%; MT1-MMP reporter = i; WNV protease inh = 0.1

Four entries from above, reformatted.
CCCCC1(CC)C(=O)NC(=O)NC1=Nc1ccc(OC)cc1 (stereo unspecified)
  Hsc70 ATP site: 4.6% | MT1-MMP reporter: i | WNV protease inh: 0.1
O=S(=O)(Nc1cccnc1)c1cc(Cl)ccc1Cl
  Hsc70 ATP site: 1.4% | MT1-MMP reporter: i | WNV protease inh: 0.87
Cc1cc(C)cc(-n2nnc(C(=O)NCc3ccco3)c2N)c1
  Hsc70 ATP site: -7.9% | MT1-MMP reporter: i | WNV protease inh: -1.1
CS(=O)(=O)N1CCC(C(=O)N2CCC(Cc3ccccc3)CC2)CC1
  Hsc70 ATP site: -1.0% | MT1-MMP reporter: i | WNV protease inh: 1.9

Next compounds follow.
SMILES	Hsc70 ATP site	MT1-MMP reporter	WNV protease inh
CCOC(=O)c1sc(=S)n(C)c1N	-4.3%	i	-1.3
Cc1cc(=O)oc(C)c1C(=O)N1CCN(C(c2ccccc2)c2ccccc2)CC1	4.4%	i	2.1
COc1ccc(/C=N/n2c(SC)nnc(C(C)(C)C)c2=O)c(OC)c1	3.5%	i	x
CCOc1ccccc1N1Cc2cc(C)c(C)cc2C1	32%	i	-0.27
Cc1ccc(NC(=O)CN(C)CC(=O)Nc2c(C)cccc2C)c(Br)c1	-0.2%	i	x
CCOC(=O)C1CCN(C(c2cccc(OC)c2)c2sc3nc(C)nn3c2O)CC1 (stereo unspecified)	-4.1%	i	-0.66
CCC(C)N1CC(C(=O)NC2CCCCC2)CC1=O (stereo unspecified)	-12%	i	-0.43
Cc1ccc(CC(=O)Nc2cccc(C)n2)cc1	-0.3%	i	0.7
Cc1ccc(S(=O)(=O)N2Cc3ccccc3CC2C(=O)Nc2cc(C)on2)cc1 (stereo unspecified)	0.2%	i	-0.91
COc1cc(C2CC(=O)c3cnc(N)nc3C2)cc(OC)c1OC (stereo unspecified)	3.1%	i	x
Cc1ccc(S(=O)(=O)N2CCSC2)cc1C	6.6%	i	x
Cc1cccn2c(=O)c3cc(C(=O)NCc4ccco4)c(=N)n(CCc4ccccc4)c3nc12	1.0%	i	-1.2
c1ccc2c(c1)OCC(c1nnc3sc(-c4ccc5c(c4)OCO5)nn13)O2 (stereo unspecified)	-7.7%	i	0.5
Cc1cc(NC(=O)CSc2c3c(nc4ccccc24)CCC3)no1	4.2%	i	1
NS(=O)(=O)c1ccc(CCNC(=O)COC(=O)C2CCCN2C(=O)c2cccs2)cc1 (stereo unspecified)	-1.3%	i	-0.21
Cn1c(=O)oc2cc(S(=O)(=O)NCCN3CCN(c4ccccc4F)CC3)ccc21	-0.1%	i	0.36
COc1ccc(Cl)cc1NC(=O)Cn1c(=O)n2nc(C)nc2c2ccccc21	3.2%	i	0.64
Cc1nc(CNS(=O)(=O)c2ccc3c(c2)OCCO3)cs1	5.2%	i	0.14
O=C(NC1(C(F)(F)F)NC(=O)N(CC2CCCCC2)C1=O)c1ccco1 (stereo unspecified)	-2.1%	i	-0.98
Cn1ccnc1SCC(=O)c1ccc(Br)cc1	-4.4%	i	-0.86
CN1C(=O)CC(N2CCN(c3ccccn3)CC2)C1=O (stereo unspecified)	9.9%	i	2.2
CCOC(=O)C1=C(C)NC2=C(C(=O)C(C(=O)OCC)C(c3ccco3)C2)C1c1ccccn1 (stereo unspecified)	1.1%	i	0.33
O=C(COC(=O)CCCN1C(=O)c2ccccc2C1=O)Nc1ncc(Cl)cc1Cl	2.8%	i	-0.0082
O=C(O)CCCSCC(=O)Nc1ccccc1	3.5%	i	x
O=C(CCS(=O)(=O)c1cccc2nonc12)N1CC(=O)N(CCc2ccccc2)C(=O)C1	-5.3%	i	1.3
CCCOC(=O)c1[nH]c2c(c1C)C(=O)CC(c1cc(OC)c(OC)c(OC)c1)C2 (stereo unspecified)	4.9%	i	0.0063
Cc1ccc(OCC(=O)OCC(=O)c2c(N)n(C)c(=O)n(C)c2=O)cc1C	-4.2%	i	x
Cc1ccc(C(=O)c2cn[nH]c2-c2ccccc2O)cc1	-1.2%	i	x
CCCCNS(=O)(=O)c1ccc(NS(=O)(=O)c2c(C)cc(C)cc2C)cc1	0.9%	i	x
Cc1ccc(CCNC(=O)C2CCCN2S(=O)(=O)c2ccc3c(c2)CCC(=O)N3)cc1 (stereo unspecified)	2.0%	i	0.43
COc1cc(C(=O)OC2CCCCC2=O)cc(OC)c1C (stereo unspecified)	-0.1%	i	-0.35
Cc1nc2cc(F)ccc2n1C1CCN(S(=O)(=O)c2ccccc2)CC1	-1.9%	i	-0.82
COc1ccc(C(=O)c2coc3ccc(O)c(CN(C)C)c23)cc1	-4.7%	i	1.2
COCCn1c(SCc2cccnc2)nnc1-c1c[nH]c2ccccc12	1.3%	i	-0.72
Cc1ccc(Cn2c(NC(=O)c3ccco3)nc3ccccc32)cc1	-4.6%	i	-0.35
COc1ccc(Br)cc1CN1CCCC(C(=O)N2CCCCC2)C1 (stereo unspecified)	-2.2%	i	x
CCC(=O)N1CN(S(=O)(=O)c2ccc(C)cc2)CC1C (stereo unspecified)	-1.0%	i	-0.69
CCn1cc(C(=O)Nc2ccc3c(c2)OCCO3)c2cc(OC)c(OC)cc2c1=O	3.0%	i	0.94
Cc1cccc(-n2nc3c(c2NC(=O)c2ccco2)CSC3)c1C	-7.7%	i	-1.1
Cn1cc(Cl)c(C(=O)Nc2cccc(Cl)c2Cl)n1	-7.1%	i	0.34
O=C(CCCN=C1NS(=O)(=O)c2ccccc21)OCC(=O)N1CCc2ccccc21	-0.6%	i	-1.4
COc1ccccc1-c1cc(C(F)(F)F)nc(N2CCOCC2)n1	1.0%	i	-0.81
COc1ccc(S(=O)(=O)N(C)CC(=O)NCc2cccnc2)cc1C	0.4%	i	-0.3
Cc1ccc(C)n1-c1cccc(N)c1	-2.7%	i	1.2
O=C1CCc2cc(S(=O)(=O)N3CCC(C(=O)NC4CCCCCCC4)CC3)ccc2N1	8.0%	i	-0.16
COc1ccccc1NC(=O)NCCCN1CCN(c2cccc(Cl)c2)CC1	-0.3%	i	0.9
CCOC(=O)CCC(=O)Nc1ccc(S(=O)(=O)N2CCCC2)cc1	2.7%	i	-0.35
CCOc1ccc(-c2c(C#N)c(N)nc3c2c(=O)n(C)c(=O)n3C)cc1OC	5.9%	i	-0.37
CC(=O)CCc1c[nH]c2c(C(=O)O)cccc12	-1.7%	i	-1.6
CC1(C)CC(=O)C(C(C2=C(O)CC(C)(C)CC2=O)c2cccc(O)c2)C(=O)C1 (stereo unspecified)	2.7%	i	-0.32
COC(=O)c1ccccc1NC(=O)c1ccc2c(c1)OCCO2	-1.6%	i	0.15
C[N+](C)(C)CCCCCCCCCC[N+](C)(C)C	-7.7%	i	0.4
OCc1nc2ccccc2n1C/C=C/c1ccccc1	-1.0%	i	0.82
C=CCn1c(SCC(=O)NC(C)(C)C)nnc1-c1ccccc1O	22%	i	x
COC(=O)c1[nH]c2cc(OC)ccc2c1NC(=O)c1nonc1C	1.6%	i	x
CCCNC(=O)c1cn(CC)c2cc(N3CCN(C)CC3)c(F)cc2c1=O	3.7%	i	x
CCCOc1ccc(C(=O)N2CCN(c3ccc(N)cc3Cl)CC2)cc1	9.0%	i	0.21
CCOc1ccc(S(=O)(=O)N(CC(=O)N2CCc3ccccc32)Cc2ccco2)cc1	0.0%	i	0.14
Cc1ccc(S(=O)(=O)Nc2nc3ccccc3nc2NCc2ccco2)cc1C	-0.1%	i	-1.4
O=C(CCCCn1c(=O)[nH]c2ccccc2c1=O)NCc1ccc2c(c1)OCO2	1.7%	i	0.32
Remaining list, next part:
SMILES	Hsc70 ATP site	MT1-MMP reporter	WNV protease inh
CCCNC(=O)N1CCN(S(=O)(=O)c2ccc(C)c(C)c2)CC1	1.8%	i	0.04
Cc1ccc2nc(C(F)(F)F)c(C#N)c(N)c2c1	-2.4%	i	-0.2
O=C(COc1ccc(-c2ccccc2)cc1)N1CCN(S(=O)(=O)Cc2ccccc2)CC1	3.1%	i	x
CCOC(=O)c1[nH]c(C)c(/C(O)=C2\C(=O)C(=O)N(CCCN(CC)CC)C2c2cccnc2)c1C (stereo unspecified)	-4.4%	i	0.23
CC1(C)CC(=O)C(C=NCCN2CCN(CCc3ccccc3)CC2)=C(O)C1	1.2%	i	-0.41
O=C(/C=N/O)NCc1ccncc1	-2.2%	i	-0.85
Cc1c(C)c2cc3c4c(oc3c(C)c2oc1=O)CCCC4	1.7%	i	2.1
Cc1[nH]c(=O)c(C#N)c2c1CCCC2	-2.1%	i	x
N#CC1=C(SCC(=O)c2ccccc2)NC2=C(C(=O)CCC2)C1c1ccco1 (stereo unspecified)	-5.6%	i	-0.28
O=C(c1ccc(Cl)c(Cl)c1)N(Cc1ccco1)c1ccc(O)cc1	0.0%	i	0.92
Cc1cc(C)n(CCc2nc(-c3cccs3)cs2)n1	-5.1%	i	0.05

Screens as filed in PubChem BioAssay.

This is a subset (hit frequency here may not be typical).
